Screening results: PubChem BioAssay, National Center for Advancing Translational Sciences (NCATS)
Vaccinia Venus: vaccinia inhibition (Venus reporter). Vaccinia virus Venus reporter expression, fluorescence. Potency, µM (titrated, usually from 36.5 µM), without a hit: at the highest dose activity change, negative = inhibition, hits mostly inhibitors. hit rate 0.46% among 330,000. AID 720580; active means well fitted inhibition curve with a large enough effect; inconclusive means small, poorly fitted or top-dose-only effect; inactive means no such curve, though single readings can be large or run the other way; tested in A549 cells; also: nearly all actives have a fitted effect of over 30% in size; inactives centre near -10
VACV mCherry inh: vaccinia inhibition (mCherry reporter); Vaccinia virus mCherry reporter infection, fluorescence; about a quarter of the inactives have no number; Potency, µM (top dose mostly 36.5 µM), without a hit: at the top dose activity change, negative = inhibition, most hits filed as inhibitors; hit rate 0.63% among 310,000; active = well fitted inhibition curve with a large enough effect; inconclusive = small, poorly fitted or top-dose-only effect; inactive = no such curve, though single readings can be large or run the other way; tested in A549 cells; also: nearly all actives have a fitted effect of over 35% in size; inactives centre near -10
* hit, by the source's call; i = inactive; u = inconclusive; x = not tested or not shown; [ ] = dose if it differs, or a comment. % is scaled to controls: 0 for no effect and ±100 for the full control effect; potency is read from the fitted curve at half-maximal effect.

cpd | canonical_smiles | Vaccinia Venus | VACV mCherry inh
1 | O=C(Cc1ccc(F)cc1)N1CCC(N2CCC(C(=O)N3CCOCC3)CC2)CC1 | -14% | -4%
2 | Cc1csc(NC(=O)CSc2ncn(-c3ccccc3)n2)n1 | -22% | -30%
3 | C=CC[C@H](CC(=O)NCCO)C(=O)N[C@@H](COC(=O)[C@@H](CC=C)CC(=O)OC(C)(C)C)Cc1c[nH]c2ccccc12 | -12% | -5%
4 | CCOC(=O)c1c(C)[nH]c(C(=O)NCCN2CCOCC2)c1C | -1% | i
5 | CCN(CCn1cccn1)C(=O)CC1C(=O)NCCN1Cc1ccc(F)cc1 (configuration not stated) | -3% | -11%
6 | O=C(NC1CCCC1)C1CCN(c2cnccn2)CC1 | -16% | -1%
7 | COc1cccc(CN(C)C[C@H]2OCc3cnnn3CCCC(=O)N([C@H](C)CO)C[C@@H]2C)c1 | -11% | i
8 | N#Cc1cc([N+](=O)[O-])ccc1NC(=O)COC(=O)CN1C(=O)C2CCCCC2C1=O (configuration not stated) | -11% | i
9 | CCC1(c2ccc(OC)cc2)NC(=O)N(CC(=O)c2ccc3c(c2)OCCO3)C1=O (configuration not stated) | -13% | -13%
10 | COc1ccccc1Nc1nc(N)nc(CN2CCCCCC2)n1 | -7% | -20%
11 | Cc1cc(O)c(C=Nc2cccc(Cl)c2)c(=O)o1 | -18% | -30%
12 | COC(=O)C1C2c3ccccc3OC1(C)N=c1s/c(=C/c3cnn(C)c3)c(=O)n12 (configuration not stated) | 1% | -7%

Reprinted at random: 5 records from the list.
cpd | canonical_smiles | Vaccinia Venus | VACV mCherry inh
6 | O=C(NC1CCCC1)C1CCN(c2cnccn2)CC1 | -16% | -1%
4 | CCOC(=O)c1c(C)[nH]c(C(=O)NCCN2CCOCC2)c1C | -1% | i
7 | COc1cccc(CN(C)C[C@H]2OCc3cnnn3CCCC(=O)N([C@H](C)CO)C[C@@H]2C)c1 | -11% | i
11 | Cc1cc(O)c(C=Nc2cccc(Cl)c2)c(=O)o1 | -18% | -30%
10 | COc1ccccc1Nc1nc(N)nc(CN2CCCCCC2)n1 | -7% | -20%

The list continues:
cpd | canonical_smiles | Vaccinia Venus | VACV mCherry inh
13 | CN1C(=O)c2cccc3c(S(=O)(=O)N4CCCC4C(=O)O)ccc1c23 (configuration not stated) | -3% | -4%
14 | Cc1csc(NC(=O)c2cccnc2Cl)n1 | -10%[7.34 µM] | -1%[7.34 µM]
15 | CCc1cc(C(=O)Nc2ccccc2N2CCOCC2)sc1C | -7% | -19%
16 | COCCCn1c(O)c(/C=C2\N=C(C#N)C(=Nc3ccc(C)cc3)O2)sc1=S | 24% | i
17 | CN1CCC23c4c5ccc(O)c4O[C@@H]2[C@H](O)C=CC3C1C5 (some centres not stated) | -8% | -22%
18 | Oc1ccccc1C1C=C(c2ccc3c(c2)OCO3)NC(c2ccc(Br)cc2)N1 (configuration not stated) | 0% | i
19 | O=C(NCc1nc2ccccc2[nH]1)C1=C[C@H](c2ccccc2)C[C@H](OCc2ccc(CO)cc2)O1 | -26% | i
20 | CN1C(C(=O)NCc2cccc(Br)c2)CC2Cn3c(nc4ccccc43)C21 (configuration not stated) | -12% | -14%
21 | CCCN1CCN(C(=O)Cn2cnc3ccc(S(=O)(=O)N4CCC(C)CC4)cc3c2=O)CC1 | 6% | -5%
22 | Brc1ccc(-c2nc3ncccn3c2Nc2ccc3c(c2)OCCO3)o1 | -10% | -7%
23 | O=C(CN1C(=O)NC2(CCCC2)C1=O)OCCOc1ccccc1 | -2% | -15%
24 | COc1ccccc1N1CCN(S(=O)(=O)c2cc3c(cc2C)NC(=O)CO3)CC1 | -6% | i
25 | O=C(O)C1Sc2[nH]c(=O)sc2C2c3ccc(O)cc3OC(=O)C12 (configuration not stated) | 0% | 4%
26 | O=C(O)c1cc(S(=O)(=O)N2CCOCC2)ccc1N1CCCCC1 | -11% | -8%
27 | CC(C)NC(=O)COC(=O)c1ccccc1Oc1ccccc1 | -17% | -19%
28 | CCc1cccc(C)c1NC(=O)Cn1c(=O)n(-c2ccc(C)cc2)c(=O)c2c1cnn2C | -2% | -13%
29 | Cc1ccc(OCc2n[nH]c(=S)n2N)cc1C | -17% | i
30 | COC(=O)c1ccccc1NC(=O)COC(=O)CSc1nnc(N)s1 | -10% | -20%
31 | COC(=O)[C@@]12C[C@@H](CC(=O)N3CCN(C(=O)c4ccco4)CC3)C(=O)N(CCc3ccc(OC)c(OC)c3)C1=CCC(C)(C)C2 | -14% | 12%
32 | Cc1cc(N=Nc2ccc(Cl)cc2)cc(CN2CCOCC2)c1O | -19% | -10%
33 | CCC(C)(C)NC(=O)CN(C(=O)CNS(=O)(=O)c1ccccc1)c1ccc2c(c1)OCCO2 | 3% | 1%
34 | COc1ccc(C)cc1NC(=O)c1cc(S(=O)(=O)N2CCCCC2)c[nH]1 | -6% | -10%
35 | COC(=O)c1ccc(C(=O)OC)c(NC(=O)C2CCCO2)c1 (configuration not stated) | -2% | -12%
36 | Cc1ccc(N2CCN(CC(O)COc3cccc4ccccc34)CC2)cc1 (configuration not stated) | -14% | -1%
37 | O=C(c1ccccc1)c1cc(-c2ccccc2)on1 | -5% | x
38 | CC(C)c1ccccc1OCCNC(=O)c1cncc(Br)c1 | -4% | i
39 | CC[C@@H](C)CCCCC(=O)N[C@H](CCN)C(=O)N[C@@H](C(=O)N[C@H](CCN)C(=O)N[C@@H]1CCNC(=O)C([C@@H](C)O)NC(=O)[C@@H](CCN)NC(=O)[C@@H](CCN)NC(=O)[C@@H](CC(C)C)NC(=O)[C@@H](Cc2ccccc2)NC(=O)[C@@H](CCN)NC1=O)[C@@H](C)O (some centres not stated) | 9% | 0%
40 | COc1ccc(-c2noc(CN(C(=O)C(C)Oc3ccc(C)cc3)C(C)C)n2)cc1 (configuration not stated) | -18% | -17%
41 | NC(=O)c1cccc(-c2ccnc3c2CC(C(=O)NCCC(F)(F)F)O3)c1 (configuration not stated) | 6% | -5%
42 | CCC(C)C(=O)OC1CC(C)C=C2C=CC(C)C(CCC3CC(O)CC(=O)O3)C21 (configuration not stated) | 18% | 1%
43 | CCOc1ccc(CN2CCN(Cc3cc4c(cc3Cl)OCO4)CC2CCO)cc1 (configuration not stated) | -18% | -23%
44 | CCOC(=O)C(C)(C)NS(=O)(=O)c1ccc(Cl)c([N+](=O)[O-])c1 | -5% | 0%
45 | COCCCNC(=S)NNC(=O)C1CC1c1ccc(C(C)(C)C)cc1 (configuration not stated) | -12% | u
46 | CCCc1nc2ccccc2c(C(=O)OC2CCOC2=O)c1CC (configuration not stated) | -11% | x
47 | COc1ccc(NC(=O)CN2C(=O)COc3ccc(S(=O)(=O)Nc4ccccc4)cc32)cc1OC | -10% | -5%
48 | CC(C)Oc1ccc(C(=O)NC(=S)N2CCOCC2)cc1 | -3% | -12%
49 | O=C(c1ccco1)N1CCN(C(=O)C2CC(=O)N(c3ccccc3)C2)CC1 (configuration not stated) | -8% | -8%
50 | COc1cc(/C=C/C(=O)OC(C)C(=O)NC2CCCCC2C)cc(Cl)c1OC (configuration not stated) | -8% | i
51 | O=C(c1sc2cc([N+](=O)[O-])ccc2c1Cl)N1CCCCC1 | -13% | -26%
52 | Cc1cccc(S(=O)(=O)NC2CCCCCCC2)c1 | -1% | -8%
53 | O=C(CN1C(=O)NC2(CCCCC2)C1=O)Nc1cc(C(F)(F)F)ccc1N1CCCCC1 | -28% | -17%
54 | O=[N+]([O-])c1ccc(NS(=O)(=O)c2ccc(Cl)c(Cl)c2)cc1 | -18% | -16%
55 | COc1cccc(S(=O)(=O)N2C[C@H](O)COC[C@H]3O[C@@H](CC(=O)N4CCN(C)CC4)CC[C@@H]32)c1 | -9% | -2%
56 | CCc1cc2c(=O)c(-c3ccc(F)cc3)c(C)oc2cc1OCC(=O)O | -1% | -8%
57 | CN(C)/N=C/c1ccc(OC(=O)c2cccc([N+](=O)[O-])c2)cc1 | -7% | 1%
58 | C=CCn1c(C)nc2ccccc2c1=O | -13% | -7%
59 | COc1ccc(OCCCC(=O)OCC(=O)Nc2c(C)nn(-c3ccccc3)c2C)cc1 | -7% | i
60 | Cc1cccc(-n2cnc3c(sc4nc(N5CCOCC5)c5c(c43)CCCC5)c2=O)c1 | -7%[7.34 µM] | -6%[7.34 µM]
61 | COc1ccc(OCC(=O)NNC(=O)Nc2cccc(Cl)c2)cc1 | -10% | -8%
62 | C(=N\Nc1nc(N2CCOCC2)nc(N2CCOCC2)n1)/c1ccncc1 | 3% | i
63 | CCOC(=O)CCN(C(=O)Nc1ccccc1)C1CCCCC1 | -10% | i
64 | CCOC(=O)Cc1csc2nc(-c3ccccc3)nn12 | -12% | i
65 | Cc1ccc(-c2noc(C3CCCN(C(=O)c4ccc(C(C)(C)C)cc4)C3)n2)o1 (configuration not stated) | -10% | -17%
66 | COc1cc(C)c(/C=C(\C#N)C(=O)Nc2ccc(C)cc2)cc1C(C)C | -9% | -17%
67 | CN(C)c1cccc(CNC(=O)c2csc(COCCO)n2)c1 | 2% | 19%
68 | Cc1ccc(C)c(NC(=O)Cc2ccc(S(=O)(=O)N3CCCCC3)s2)c1 | -15% | -5%
69 | CNC(=O)/C(C#N)=C/c1c(N2CCN(c3ccccc3)CC2)nc2c(C)cccn2c1=O | -22% | -23%
70 | COc1ccc(NC(=O)C/C(C)=N/NC(=O)c2ccncc2)c([N+](=O)[O-])c1 | -10% | -24%
71 | O=C(CSc1nc2c(sc3ccccc32)c(=O)n1CCCN1CCOCC1)NCC1CCCO1 (configuration not stated) | -4% | -9%
72 | COc1ccc(Nc2nc(N3CCOCC3)nc(N3CCOCC3)n2)cc1Cl | -4% | -22%

One compound at a time, from the list above. Order of screens: Vaccinia Venus | VACV mCherry inh
CNC(=O)/C(C#N)=C/c1c(N2CCN(c3ccccc3)CC2)nc2c(C)cccn2c1=O reads -22% | -23%
CCOC(=O)CCN(C(=O)Nc1ccccc1)C1CCCCC1 reads -10% | i
O=C(CSc1nc2c(sc3ccccc32)c(=O)n1CCCN1CCOCC1)NCC1CCCO1 (configuration not stated) reads -4% | -9%

Further compounds:
cpd | canonical_smiles | Vaccinia Venus | VACV mCherry inh
73 | C[C@H]1COC(=O)[C@@H](CC(=O)OC(C)(C)C)C/C=C\C[C@H](CC(=O)NCCO)C(=O)N1 | -13% | i
74 | O=C1CCC(C(=O)Nc2cccc(Br)c2)N1 (configuration not stated) | -9% | i
75 | CC(=O)N/C(=C\c1ccc(F)cc1)C(=O)NC(Cc1c[nH]c2ccccc12)C(=O)O (configuration not stated) | -1% | -5%
76 | Cc1c(C2C(C#N)=C(N)OC3=C2C(=O)CCC3)cnn1C (configuration not stated) | -9% | -11%
77 | CSc1ncccc1C(=O)OCc1nc2ccsc2c(=O)[nH]1 | -11% | i
78 | c1ccc(-c2nc(-c3ccc(-c4ccon4)s3)no2)cc1 | -9% | i
79 | O=C(CCC(=O)Nc1ccccc1)NNC(=O)CCc1ccccc1 | -7% | -1%
80 | CCc1ccc(CN2CCC(C(=O)Nc3ccc(Oc4ccccc4)nc3)CC2)o1 | -23% | i
81 | Cc1csc(Nc2ccccc2)[n+]1C | 3% | 1%
82 | CCc1cc(C(=O)NCCN2Cc3ccccc3OC(c3ccsc3)C2)n(C)n1 (configuration not stated) | -21% | -12%
83 | CCN(CC)S(=O)(=O)c1ccc(OCC(=O)NCc2ccco2)cc1 | -11% | i
84 | Cc1ccc(CNc2nc3ccc(Cl)cc3n3cnnc23)cc1 | -15% | -20%
85 | CCc1ccc2oc(=O)cc(CN3CCOCC3)c2c1 | -21% | u
86 | CCCCNC(=O)c1ccc2c(c1)ncn2-c1cc(OC)ccc1OC | -11% | i
87 | COc1cccc(C2CC(c3ccccc3C)n3nc(N)nc3N2)c1 (configuration not stated) | -5% | 18%
88 | CN(C)C(=O)CCc1ccc2c3c([nH]c2c1)[C@]1(C)[C@@H](C(=O)N2CCCCC2)C[C@H](CC(=O)NCCc2ccccn2)C(=O)N1CC3 | -4% | i
89 | Cc1ccc(NS(=O)(=O)c2ccc3c(c2)NC(=O)CC(=O)N3)cc1C | -5% | -11%
90 | O=C(CCSCCC(=O)NN=Cc1ccccc1O)NN=Cc1ccccc1O | -17% | i
91 | COc1cc(-c2nc(-c3ccc4c(c3)-c3ccccc3S4(=O)=O)c(-c3ccccc3)[nH]2)cc(OC)c1OC | -28% | -8%[1.46 µM]
92 | O=C(O)CSC12CC3CC(C1)CC(C(=O)O)(C3)C2 | -4% | -16%
93 | CNc1oc(-c2ccccc2Cl)nc1C#N | -32% | x
94 | O=c1[nH]c(/C=C\c2cccnc2)c([N+](=O)[O-])c(=O)[nH]1 | 3% | -12%
95 | CCOC(=O)c1ccc(N=C2SC(C(=O)NC)CC(=O)N2CCc2ccccc2)cc1 (configuration not stated) | -17% | -12%
96 | CC1CCCC(C)N1NC(=S)Nc1ccc(OC(F)F)cc1 (configuration not stated) | -8% | -16%
97 | O=C(COc1coc(CN2CCCc3ccccc32)cc1=O)Nc1cccc([N+](=O)[O-])c1 | -11% | -15%
98 | O=C(/C=C/c1ccco1)NCC1COc2ccccc2O1 (configuration not stated) | -2%[7.34 µM] | -8%[7.34 µM]
99 | CCN(CC(=O)Nc1c(F)cccc1F)C(=O)c1cc2c(cc1Cl)N1CCCCCC1=NS2(=O)=O | 1% | -13%
100 | Cc1ccc(C)c(Cn2nnc3c(=O)[nH]c(C4CCCN(C(=O)C5CCCCC5)C4)nc32)c1 (configuration not stated) | -8% | -7%
101 | CN(C)C(=O)c1ccc(SC(=S)NCc2ccccc2)cc1 | -27% | -6%
102 | O=C1CCC2(CC1)NC(=O)N(c1ccccc1)N2 | -3% | -15%
103 | C=CCOc1ccc(/C=C/C(=O)OCC(=O)NCC2CCCCC2)cc1 | -25% | u
104 | COc1ccc(C2CC(=O)Nc3c2c(=O)[nH]c2nc4ccccc4n32)cc1OC (configuration not stated) | -4%[7.34 µM] | 1%[7.34 µM]
